Mtb H37Rv: M. tuberculosis H37Rv growth inhibitors, H37Rv strain (AID 1626); inhibition, % at 10 µM, or IC50 in µM where a hit was titrated; M. tuberculosis H37Rv growth inhibition; higher % means a stronger effect; 220,000 compounds, 0.95% hits;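 active = confirmed in a dose series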;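 note: bacteria incubated seven days before Alamar blue readout; 0% = bacteria only wells and 100% = bacteria with antibiotic wells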
YopH inh: YopH tyrosine phosphatase inhibitors, primary screen, biochemical, fluorescence Ex485/Em525; YopH tyrosine phosphatase [Yersinia enterocolitica]; inhibition, %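 (about 10 µM by stock and volumes)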; 140,000 compounds, 0.16% hits;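 active = inhibition of 50% or more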;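 note: controls were vehicle for no effect and minimum signal wells for full effect; inactives centre near -20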
Mtb betalactam: beta-lactam sensitization of Mtb H37Rv, H37Rv; AID 434955, 2010; M. tuberculosis H37Rv growth with meropenem, percent inhibition; hits of this screen are not shown here; inhibition, % at 25 µM; 330,000 compounds, 0.27% hits;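 active = about 74% or more and at least 40 points above the plate without the antibiotic, then above 30% in a dose series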;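 note: growth measured after seven days incubation then overnight dye step; 0% = bacteria only wells and 100% = bacteria with antibiotic; twin plates without the antibiotic show which effects depend on it; some results filed as inactive read as strong as hits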
Arbovirus anti: antivirals against arbovirus infection, primary screen, cell-based, full library, 10K replicate subset | arbovirus infection cell-based antiviral screen | 200,000 compounds, 0.37% hits | inhibition, % at 10 µM;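 active = inhibition from about 30%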;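 note: bluetongue infection of BSR cells; cell survival read as ATP light after 72 h; 0% = infected wells without compound and 100% = uninfected wells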
RecA intein inh: Mtb RecA intein splicing inhibitors, primary screen, biochemical, fluorescence, HTS. Protein RecA (Mycobacterium tuberculosis (strain ATCC 25618 / H37Rv)), P9WHJ3. cell-free RecA intein splicing. inhibition, %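 (about 9 µM by stock and volumes)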. 290,000 compounds, 0.75% hits. AID 2221, 2009; in the data active = inhibition above about 30%;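 note: 0% = vehicle wells and 100% = reference inhibitor control wells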
Target sequence (P9WHJ3 whole entry, looked up): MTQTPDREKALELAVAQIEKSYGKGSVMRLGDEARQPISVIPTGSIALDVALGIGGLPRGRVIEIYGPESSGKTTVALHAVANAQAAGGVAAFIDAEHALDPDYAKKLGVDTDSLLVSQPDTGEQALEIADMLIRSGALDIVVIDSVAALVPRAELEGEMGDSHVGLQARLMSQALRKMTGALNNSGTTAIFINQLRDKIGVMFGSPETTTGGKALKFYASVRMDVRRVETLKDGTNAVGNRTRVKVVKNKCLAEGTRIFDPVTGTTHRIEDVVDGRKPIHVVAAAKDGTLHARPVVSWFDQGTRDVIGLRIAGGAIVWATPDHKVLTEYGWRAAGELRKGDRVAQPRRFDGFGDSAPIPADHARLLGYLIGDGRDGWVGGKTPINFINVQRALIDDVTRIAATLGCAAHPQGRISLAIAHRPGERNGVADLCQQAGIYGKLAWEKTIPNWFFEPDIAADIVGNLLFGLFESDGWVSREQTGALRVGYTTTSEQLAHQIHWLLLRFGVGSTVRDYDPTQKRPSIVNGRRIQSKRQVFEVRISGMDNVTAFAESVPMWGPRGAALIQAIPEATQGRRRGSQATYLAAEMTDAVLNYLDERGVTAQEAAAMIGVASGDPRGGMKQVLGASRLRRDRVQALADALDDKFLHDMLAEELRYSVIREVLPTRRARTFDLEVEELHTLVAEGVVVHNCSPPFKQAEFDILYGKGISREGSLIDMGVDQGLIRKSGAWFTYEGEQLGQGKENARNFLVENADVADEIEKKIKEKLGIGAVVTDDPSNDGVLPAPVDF
Arbovirus anti repeat: second read-out of Arbovirus anti, no call of its own (marks repeat the call); inhibition, %; measured here: 10K subset replicate screen; many hits read low in the repeat;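 first of two repeat runs on a subset; 0% = infected and 100% = uninfected wells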
Active calls of the source: *; nt = not tested or not shown. These rows are one share of the data, so the mix of outcomes need not match the whole.

SMILES	Mtb H37Rv	YopH inh	Mtb betalactam	Arbovirus anti	RecA intein inh	others
COc1ccc(S(=O)(=O)N(Cc2cc3cc(C)ccc3[nH]c2=O)CC2CCCO2)cc1 (stereo not drawn)	-22%	-6	5	-7	3.6
CCOc1ccc(NC(=O)CSc2nc(N3CCOCC3)nc(N3CCOCC3)n2)cc1	nt	nt	2	nt	1.0
Cc1ccc(Cn2nnc3c(=O)[nH]c(C(=O)NCc4ccco4)nc32)cc1	5%	-37	60	3	1.8
COc1ccc(OC)c(Nc2nc(NCc3ccco3)c3ccccc3n2)c1	nt	nt	99	nt	17
O=S(=O)(c1ccccc1)N(Cc1nc(-c2ccccc2)no1)C1CCCCC1	3%	17	3	2	2.5
Cc1ccccc1Oc1cccc(C(=O)/C(C#N)=C/N(C)C)c1	0%	2	-4	7	6.4
CC(C)(C)N1C(=O)[C@H]2[C@@H](c3ccc(Br)cc3)N3C(=O)N(c4ccccc4)C(=O)[C@@]3(Cc3ccccc3)[C@H]2C1=O	nt	nt	-2	nt	1.9
O=c1oc2ccccc2c2c1SC(C(F)(F)F)C2 (stereo not drawn)	1%	-9	-3	7	2.1
CN(CC(=O)NCCc1ccc(F)cc1)Cc1ccc(Br)cc1	nt	nt	8	nt	6.5
Cc1ccc(C(=O)Oc2coc(CSc3nnc(NC(=O)c4cccs4)s3)cc2=O)cc1	2%	-13	-2	-28	-1.9
O=S(=O)(c1ccccc1)c1nc(-c2ccco2)oc1NCc1ccccc1	0%	-19	3	-12	8.6
CN(C)c1ccc(CNc2ccc3c(c2)ncn3C)cc1	62%	2	88	-23	-0.4
COc1ccccc1/C=N/n1cnnc1	nt	-6	-14	7	nt
CSc1ncc(CNc2cc([N+](=O)[O-])ccc2C)c(N)n1	4%	nt	0	nt	-1.1
Cc1ccc(O)c(-c2cc(-c3cccc(F)c3)n[nH]2)c1	6%	-7	95	-49	11
NC(=O)COc1ccc(C2c3c(oc4ccccc4c3=O)C(=O)N2CC2CCCO2)cc1 (stereo not drawn)	-3%	7	9	5	0.8
C/C(=N\OC(=O)c1ccc(Cl)cc1)c1nccs1	-2%	-26	0	2	-1.4
NC(=O)CC[C@@H]1NC(=O)[C@@H]2CCCN2C(=O)c2cc([N+](=O)[O-])cc(I)c2NCCC[C@@H](C(=O)NC(CC(=O)O)C(N)=O)NC1=O (stereo partly drawn)	5%	-19	-4	1	nt
Cc1ccc(CNC(=O)c2ccc(N3CCC4(CC3)CC(c3ccccc3)=NO4)c(NC(=O)c3ccccc3)c2)cc1	nt	nt	42	nt	-4.5
Cc1ccc2c(c1)N(S(=O)(=O)c1cc(-c3cc(C)no3)ccc1C)CCO2	nt	nt	-13	nt	3.3
COCCNC(=O)c1onc(CSc2ccccc2)c1C(=O)NCCOC	nt	nt	-4	nt	2.3
O=C1CCCCC1Sc1nnc(-c2ccc3c(c2)OCO3)o1 (stereo not drawn)	1%	nt	6	3	4.2
CC(C)Oc1ccc(Br)cc1/C=N\NC(N)=S	7%	-9	-1	-3	2.8
CCOC(=O)C1(Cc2cccc(Cl)c2)CCCN(C(=O)c2occc2C)C1 (stereo not drawn)	nt	nt	3	nt	6.0
Cc1cccc(NC(=O)Cn2c(O)c(N=NC(=O)c3ccncc3)c3ccccc32)c1	-12%	nt	6	1	-0.1
COc1ccc(/C=N/NC(=O)c2snnc2C)c(OC)c1OC	4%	nt	-9	18	-4.5
CCCCCNCC(=O)Nc1cccc(C(=O)Nc2cccc(C(F)(F)F)c2)c1	0%	nt	79	-21	-1.4
COc1ccc(N2CCN(C(=O)CN(C3CCCCC3)S(C)(=O)=O)CC2)cc1	4%	nt	-11	8	-3.4
CN1C(C(=O)NCCc2cccs2)CC2Cn3c(nc4cc5ccccc5cc43)C21 (stereo not drawn)	8%	nt	-3	nt	-2.2
COC(=O)CN1C(=O)[C@H]2[C@@H](/C=C/c3ccccc3)N3C(=O)CN(CC4CC4)C(=O)[C@@]3(Cc3ccccc3)[C@H]2C1=O	nt	nt	-9	nt	-0.8
CC(C)c1cc(=O)n2[nH]c(SCc3ccccc3Cl)nc2n1	nt	nt	1	nt	2.2
Cc1ccc(S(=O)OCC(=O)Nc2cc(Cl)ccc2N2CCOCC2)cc1 (stereo not drawn)	-4%	nt	-3	2	0.2
CCOC(=O)N1CCN(c2nc(=S)n(-c3ccccc3)c(C)c2C(C)=O)CC1	-1%	-36	-8	1	0.9	Arbovirus anti repeat=1
Fc1ccc(-c2ccnc(=S)[nH]2)cc1	4%	-47	97	2	2.2
Cc1c(Cl)cccc1NC(=S)N(Cc1ccccc1)Cc1cccnc1	5%	nt	10	17	3.8
O=C(NC1CCOC1)c1cc(COc2cccc(C(F)(F)F)c2)on1 (stereo not drawn)	nt	nt	2	nt	-1.0
COc1ccc(-c2cc(=O)c3cc(OC)c(OC)cc3[nH]2)cc1	-9%	-40	-10	4	-1.2
CCc1cccc(CC)c1NC(=O)CSc1nnc(CCC(=O)O)c(=O)[nH]1	-2%	nt	1	2	-0.3
CCNC(=S)N(CCO)Cc1cc2cc3c(cc2[nH]c1=O)OCO3	nt	nt	2	nt	-6.0
CN(C)S(=O)(=O)c1ccc(-c2ccccc2)cc1	11%	-20	9	2	-3.7	Arbovirus anti repeat=2

23 neighbouring records from above:
SMILES	Mtb H37Rv	YopH inh	Mtb betalactam	Arbovirus anti	RecA intein inh	others
COc1ccc(S(=O)(=O)N(Cc2cc3cc(C)ccc3[nH]c2=O)CC2CCCO2)cc1 (stereo not drawn)	-22%	-6	5	-7	3.6
CCOc1ccc(NC(=O)CSc2nc(N3CCOCC3)nc(N3CCOCC3)n2)cc1	nt	nt	2	nt	1.0
Cc1ccc(Cn2nnc3c(=O)[nH]c(C(=O)NCc4ccco4)nc32)cc1	5%	-37	60	3	1.8
COc1ccc(OC)c(Nc2nc(NCc3ccco3)c3ccccc3n2)c1	nt	nt	99	nt	17
O=S(=O)(c1ccccc1)N(Cc1nc(-c2ccccc2)no1)C1CCCCC1	3%	17	3	2	2.5
Cc1ccccc1Oc1cccc(C(=O)/C(C#N)=C/N(C)C)c1	0%	2	-4	7	6.4
CC(C)(C)N1C(=O)[C@H]2[C@@H](c3ccc(Br)cc3)N3C(=O)N(c4ccccc4)C(=O)[C@@]3(Cc3ccccc3)[C@H]2C1=O	nt	nt	-2	nt	1.9
O=c1oc2ccccc2c2c1SC(C(F)(F)F)C2 (stereo not drawn)	1%	-9	-3	7	2.1
CN(CC(=O)NCCc1ccc(F)cc1)Cc1ccc(Br)cc1	nt	nt	8	nt	6.5
Cc1ccc(C(=O)Oc2coc(CSc3nnc(NC(=O)c4cccs4)s3)cc2=O)cc1	2%	-13	-2	-28	-1.9
O=S(=O)(c1ccccc1)c1nc(-c2ccco2)oc1NCc1ccccc1	0%	-19	3	-12	8.6
CN(C)c1ccc(CNc2ccc3c(c2)ncn3C)cc1	62%	2	88	-23	-0.4
COc1ccccc1/C=N/n1cnnc1	nt	-6	-14	7	nt
CSc1ncc(CNc2cc([N+](=O)[O-])ccc2C)c(N)n1	4%	nt	0	nt	-1.1
Cc1ccc(O)c(-c2cc(-c3cccc(F)c3)n[nH]2)c1	6%	-7	95	-49	11
NC(=O)COc1ccc(C2c3c(oc4ccccc4c3=O)C(=O)N2CC2CCCO2)cc1 (stereo not drawn)	-3%	7	9	5	0.8
C/C(=N\OC(=O)c1ccc(Cl)cc1)c1nccs1	-2%	-26	0	2	-1.4
NC(=O)CC[C@@H]1NC(=O)[C@@H]2CCCN2C(=O)c2cc([N+](=O)[O-])cc(I)c2NCCC[C@@H](C(=O)NC(CC(=O)O)C(N)=O)NC1=O (stereo partly drawn)	5%	-19	-4	1	nt
Cc1ccc(CNC(=O)c2ccc(N3CCC4(CC3)CC(c3ccccc3)=NO4)c(NC(=O)c3ccccc3)c2)cc1	nt	nt	42	nt	-4.5
Cc1ccc2c(c1)N(S(=O)(=O)c1cc(-c3cc(C)no3)ccc1C)CCO2	nt	nt	-13	nt	3.3
COCCNC(=O)c1onc(CSc2ccccc2)c1C(=O)NCCOC	nt	nt	-4	nt	2.3
O=C1CCCCC1Sc1nnc(-c2ccc3c(c2)OCO3)o1 (stereo not drawn)	1%	nt	6	3	4.2
CC(C)Oc1ccc(Br)cc1/C=N\NC(N)=S	7%	-9	-1	-3	2.8

More compounds
SMILES	Mtb H37Rv	YopH inh	Mtb betalactam	Arbovirus anti	RecA intein inh	others
Cc1c(NS(=O)(=O)c2ccc3c(c2)n(C)c(=O)n3C)c(=O)n(-c2ccccc2)n1C	-4%	10	-14	4	-6.6
O=c1[nH]ncc(N/N=C\c2cccs2)c1Cl	4%	nt	-3	-6	5.1
COc1ccc([N+](=O)[O-])cc1NC(=O)C1CCCN1S(=O)(=O)c1cccs1 (stereo not drawn)	nt	nt	3	nt	1.5
COc1ccc(Cl)cc1C(=O)NNC(=O)CCNC(C)=O	-6%	nt	1	0	-2.2
COC(=O)NCC(c1ccc2c(c1)OCO2)N1CCN(c2ccccc2)CC1 (stereo not drawn)	nt	nt	1	nt	3.2
N#CCC(=O)N/N=C/c1cn(Cc2ccc3ccccc3c2)c2ccccc12	2%	nt	-4	nt	2.1
COc1ccccc1CN1CC(C(=O)NCCN2CCOC2=O)CCC1=O (stereo not drawn)	nt	nt	-9	nt	1.8
CCCCC#Cc1cncc(C(=O)N/N=C/c2ccccc2)c1	73%	nt	92	nt	0.8
N#Cc1cccc(NC(=O)Cc2ccccc2)c1	7%	nt	-7	13	0.2
Cc1c(-n2c(O)c(C3=c4ccccc4=NC3=O)sc2=O)c(=O)n(-c2ccccc2)n1C	2%	nt	-7	6	-0.7
CCCCc1nnc(SCC(=O)Nc2nccs2)n1C	nt	nt	4	nt	0.7
O=C(NCc1ccncc1)C1CCN(S(=O)(=O)c2cc(Cl)ccc2Cl)CC1	nt	nt	4	nt	0.0
Cc1cc(C)n(CC(C)NC(=O)c2cc(COc3c(F)cccc3F)on2)n1 (stereo not drawn)	13%	nt	3	1	-0.5
CCS(=O)(=O)N1CCCC(C(=O)NCc2ccccc2Cl)C1 (stereo not drawn)	-4%	35	-16	-2	1.7
COc1ccccc1N1CCN(c2nc(C)nc3c2oc2ccccc23)CC1	1.7µM*	-35	100	-27	3.2
C=CCOc1ccc(/C=C2\SC(=S)N(N3CCOCC3)C2=O)cc1	-12%	nt	1	nt	2.8
CCOC(=O)c1cc2c(nc1N)CCCC2	6%	nt	17	nt	-1.6
CCOC(=O)NC(NC(=O)OCC)C(=O)c1ccccc1	-2%	25	-8	10	3.0
CCOc1ccc2nc(SCC(=O)c3ccccc3)sc2c1	11%	-21	5	9	-3.9
O=C(Nc1ccc(F)cc1)Nc1ccc(N2CCCC2)c(S(=O)(=O)Nc2ccccc2Cl)c1	14%	-28	5	-9	10

Two records picked at random from those above, as already listed:
SMILES	Mtb H37Rv	YopH inh	Mtb betalactam	Arbovirus anti	RecA intein inh	others
CCOC(=O)c1cc2c(nc1N)CCCC2	6%	nt	17	nt	-1.6
Cc1cc(C)n(CC(C)NC(=O)c2cc(COc3c(F)cccc3F)on2)n1 (stereo not drawn)	13%	nt	3	1	-0.5

Remaining list, next part.
SMILES	Mtb H37Rv	YopH inh	Mtb betalactam	Arbovirus anti	RecA intein inh	others
O=C(Nc1nnc(S(=O)(=O)Cc2ccc(F)cc2)s1)c1ccccc1F	nt	nt	-6	nt	-0.5
COc1ccccc1N1CCN(C(=O)Cn2nnc(-c3ccncc3)n2)CC1	2%	-46	6	8	-2.1
CCC1(C)Cc2c(sc3nc(SCC(=O)c4ccccc4)[nH]c(=O)c23)CO1 (stereo not drawn)	3%	nt	-3	nt	-1.9
COc1ccc2nc3oc(C(=O)N4CCC(C(N)=O)CC4)cc3cc2c1	8%	-56	3	-3	-1.8
CCOc1ccc(NC(=O)CN2C(=O)COc3ccc(Cl)cc32)cc1	-6%	-48	7	4	2.9	Arbovirus anti repeat=-5
Nc1ccc(C(=O)OCc2nc3ccccc3[nH]2)cc1	-9%	4	12	-4	-2.6
O=C(CCC1CCCN(C(=O)c2cc(C3CC3)[nH]n2)C1)N1CCN(c2ccccn2)CC1 (stereo not drawn)	1%	nt	-4	0	-5.3
Cc1cc(C(=O)N/N=C/c2ccco2)c2ccccc2n1	10%	-10	-1	1	0.4

Source: PubChem BioAssay (several laboratories)
